Tg IFNy HTS – T. gondii growth inhibition with IFN-gamma, primary screen, cell-based | Toxoplasma gondii growth in IFN-gamma-treated host cells; active compounds read low; reference of the scale not given here | activity change, negative = inhibition, %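 (about 20 µM by stock and volumes)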 | 69,000 compounds, 3.8% hits | AID 1259416, 2018;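 active = below -70%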;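 also: host cells are HeLa cells infected with Toxoplasma gondii; parasite growth read as luciferase light; one replicate is shown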
* = called active by the depositor; i = inactive; & = joins results of further samples.

SMILES | Tg IFNy HTS
COCCN1CCCC12CCN(c1ccccc1F)CC2 | -1
CO[C@H](CN(C)Cc1nccs1)[C@H](C)CN([C@@H](C)CO)S(=O)(=O)c1ccc(F)cc1 | -54
O=C(Nc1ccc(Cl)cc1)c1c(O)c2ccccc2n(-c2ccccc2)c1=O | 43
O=C(c1cn[nH]n1)N1CCN(C(=O)N(c2ccccc2)c2ccccc2)CC1 | 1
COCC1CCC2(CCN(C(=O)CCc3ccccc3)CC2)N1C (stereo not drawn) | -7
C[C@H](CO)N1C[C@H](C)[C@H](CN(C)S(=O)(=O)c2ccc(Cl)cc2)OCCCC[C@H](C)Oc2ccc(NC(=O)Nc3ccc(C(F)(F)F)cc3)cc2C1=O | 45
Brc1ccc2c(c1)C1C=CCC1C(C1CC=CCC1)N2 (stereo not drawn) | 27
CCN1c2ccccc2C(=O)NC12CCN(C(=O)Cc1ccccc1C)CC2 | -21
CCCC(C)c1nnc(NC(=O)c2ccccc2-n2cncn2)s1 (stereo not drawn) | 0
C=CCn1c(=O)c(C(=O)Nc2cc(F)ccc2F)c(O)c2ccccc21 | 68
c1ccc(C2CCCN2Cc2cnc(N3CCCC3)nc2)nc1 (stereo not drawn) | 0
O=C(CSc1nc2ccccc2s1)NC12CC3CC(CC(C3)C1)C2 | 13
Cn1ccc(-c2cc(C(=O)Nc3ccc(F)cc3)c3ccccn23)n1 | -69
COc1ccccc1OC1CCN(Cc2nc(-c3ccc(SC)cc3)oc2C)CC1 | -25
C/C(=C\c1ccco1)CN1CCC(n2nc(C)cc2C)C1 (stereo not drawn) | -3
Cc1cccc(NC(=O)Cn2ncc3c(N4CCC(C)CC4)ncnc32)c1C | 30
CCCC(Nc1nc(-c2cccnc2)nc2c1cnn2C)c1cccs1 (stereo not drawn) | -51
Cc1nc(CN2CCCn3nnc(COCCO)c3C2)cs1 | -5
CCOc1ccc(-c2noc(-c3c(O)c4cc(F)ccc4n(C)c3=O)n2)cc1 | 22
COc1ccc(CN2C(=O)CCC23CCN(C(=O)NC2CC2)CC3)cc1 | -20

SMILES | Tg IFNy HTS
CO[C@H]1CC[C@H]2CCOc3c(C#N)cccc3C(=O)N(C)CC3(CCCCC3)CC(=O)N(C)C[C@@H]1O2 | -21
COc1cccc(OC)c1C(=O)N1CCN(S(=O)(=O)c2cc3c4c(c2)CCC(=O)N4CCC3)CC1 | 67
Cc1nc2n(n1)CCN(C(=O)c1ccc(S(=O)(=O)N3CCOCC3)cc1)C2 | -1
COc1ccc2[nH]cc(CCNc3ccc(S(=O)(=O)C(C)(C)C)nn3)c2c1 | -5
Cc1cccc(-c2nc(C)c(CCNS(=O)(=O)c3ccc(I)cc3)s2)c1 | i
C[C@H]1COCn2nncc2CC[C@@H](Cc2ccc(-c3ccccc3)cc2)C(=O)N1 | 21
OCc1ccccc1-c1ccc2oc(-c3cccnc3)nc2c1 | 173
CCOCc1cncc2c1CCN(C(=O)c1ccc3c(c1)OCO3)C2 | -2
COc1ccccc1-c1ccc2n(c1=O)C[C@@H]1[C@@H](CO)[C@H](C(=O)N3CCOCC3)[C@H]2N1CC1CC1 | 8
O=C(CCSc1ccc2c(c1)OCCO2)NCCc1nccs1 | 5
CSc1ncc(C(=O)N2CCC(=O)N(CC3CC3)C(C(C)C)C2)cn1 (stereo not drawn) | 8
O/N=C/c1cc[n+](COC[n+]2ccc(/C=N/O)cc2)cc1 | 45
CCc1cc(N(C)CCCO)nc(N2CCCC2)n1 | 19
CC1CCCCN1CCNC(=O)c1csc(-c2ccc(N3CCCC3)nc2)n1 (stereo not drawn) | -46
Cc1cc(C)cc(NC(=O)CN2C(=O)CCc3cc(S(=O)(=O)N4CCC(C)CC4)ccc32)c1 | 19
CO[C@@H]1CN(C)C(=O)c2cc(NC(=O)c3ccc4c(c3)OCO4)ccc2OC[C@@H](C)N(CCC(F)(F)F)C[C@@H]1C | -4
C/C=C/c1ccc([C@H]2[C@@H](CO)N3C(=O)CN(C(=O)Nc4ccc(F)cc4)C[C@@H]23)cc1 | -10
Cc1onc(-c2ccccc2)c1CNC(=O)NC1CCN(C(=O)OCc2ccccc2)CC1 | -82*
Cc1ccc(-c2cc3c(=O)n(Cc4nc(-c5cccc(Cl)c5)oc4C)ccn3n2)cc1C | 36
c1ccc(C2CN3CCSC3=N2)cc1 (stereo not drawn) | 2&6

Taken from above.
`COc1ccc2[nH]cc(CCNc3ccc(S(=O)(=O)C(C)(C)C)nn3)c2c1` in Tg IFNy HTS is entered as -5
`CO[C@@H]1CN(C)C(=O)c2cc(NC(=O)c3ccc4c(c3)OCO4)ccc2OC[C@@H](C)N(CCC(F)(F)F)C[C@@H]1C` in Tg IFNy HTS is entered as -4
`CCOCc1cncc2c1CCN(C(=O)c1ccc3c(c1)OCO3)C2` in Tg IFNy HTS is entered as -2
`CSc1ncc(C(=O)N2CCC(=O)N(CC3CC3)C(C(C)C)C2)cn1` (stereo not drawn) in Tg IFNy HTS is entered as 8
`Cc1onc(-c2ccccc2)c1CNC(=O)NC1CCN(C(=O)OCc2ccccc2)CC1` in Tg IFNy HTS is entered as -82*
`Cc1ccc(-c2cc3c(=O)n(Cc4nc(-c5cccc(Cl)c5)oc4C)ccn3n2)cc1C` in Tg IFNy HTS is entered as 36

Remaining list, next part.
SMILES | Tg IFNy HTS
CC(C)N1CCOCC2(CCCN(C(=O)Cc3cccs3)C2)C1 (stereo not drawn) | -53
Cc1ncsc1C(=O)N1CCC2(CC1)CC(CC(=O)O)c1ccccc1O2 (stereo not drawn) | -6
CCCC(C)c1nnc(NC(=O)c2cc(C)[nH]c(=O)c2)s1 (stereo not drawn) | 0
CC(C)(Oc1ccc2c(c1)CCC2)C(=O)NC1C=CS(=O)(=O)C1 (stereo not drawn) | 5
Cc1nc(CN2CCC(N3CCCC3)CC2C(=O)O)cs1 (stereo not drawn) | i
CC(C)CS(=O)(=O)N1CCC2(CC1)CC1(CCN(c3ncccn3)CC1)C(=O)N2C | 7
O=C(Cn1cccc1-c1nc(-c2ccccc2)cs1)N1CCC(N2CCCCC2)CC1 | -2
O=C(c1ccc(-c2cccc3ccnn23)nc1)N1CCCCC1CCn1cccn1 (stereo not drawn) | 122
O=C(c1ccoc1)N1CC[C@H]2[C@@H]1CCN2c1nncs1 | 182
COc1cc(C(=O)NCCc2sc(-c3ccc(F)cc3)nc2C)cc(OC)c1OC | -44
COc1ccc2c3c(n(C)c2c1)[C@@H](CO)N(C(=O)Nc1ccc(F)cc1)CC31CN(S(=O)(=O)c2cn(C)cn2)C1 | 58
Cc1ccccc1C1CC(=O)c2cnc3[nH]n(-c4ccccc4)c(=O)c3c2C1 (stereo not drawn) | -91*
CN1C=CC=C/C1=C\C=C1\C=Nc2ccccc21 | -52
COCCN1CCC(CN2CCN(c3ncc(C)c(N)n3)CC2)CC1 | 2
Cc1ccc(-c2coc(-c3ccc(NS(=O)(=O)c4ccc(Cl)s4)cc3)n2)c(C)c1 | -31
CCCN1C(=O)CCc2cc(C(=O)N3CCOCC3)ccc21 | -14
CCOc1ccccc1-c1nc(Cn2nnc(C(=O)Nc3ccc(C)c(Cl)c3)c2C)c(C)o1 | 3
COc1ccccc1C(CCN(Cc1ccccc1)C(C)=O)c1ccco1 (stereo not drawn) | 56
O=C(Nc1ccc(N2CCCS2(=O)=O)cc1)c1cc(-n2cccn2)ccc1Cl | 9
CCc1ccccc1NC(=O)N1CCC2(CC1)NC(=O)c1ccc(Cl)cc1N2CC | 2

Of the compounds above, these have an NH in an aromatic ring.
SMILES | Tg IFNy HTS
O=C(c1cn[nH]n1)N1CCN(C(=O)N(c2ccccc2)c2ccccc2)CC1 | 1
COc1ccc2[nH]cc(CCNc3ccc(S(=O)(=O)C(C)(C)C)nn3)c2c1 | -5
CCCC(C)c1nnc(NC(=O)c2cc(C)[nH]c(=O)c2)s1 (stereo not drawn) | 0
Cc1ccccc1C1CC(=O)c2cnc3[nH]n(-c4ccccc4)c(=O)c3c2C1 (stereo not drawn) | -91*

(further entries)
SMILES | Tg IFNy HTS
CN1C(=O)CC(c2ccccc2)C12CCN(CC1CCOC1)CC2 (stereo not drawn) | -43
Cc1cc(-c2ccccc2CN2CCOCC2)cnc1-n1cnnc1 | -5
COC(=O)c1ccc(NC(=O)C(=O)NCCc2sc(-c3cccc(F)c3)nc2C)cc1 | -16
Cc1ccc2c(c1)C(=O)NC1(CCN(C(=O)NCc3ccccc3)CC1)N2C | 23
CC1CCN(c2nc(C(C)NCc3ccc4c(c3)OCCO4)cc(=O)[nH]2)CC1 (stereo not drawn) | 0
CCc1ccc(S(=O)(=O)N2CCC3(CC2)NCCN=C3NCc2ccc(C)cc2)cc1 | -30
O=C(C1CC1)N1CCc2c(ncnc2NCCCC2CCOC2)C1 (stereo not drawn) | 3
CCOc1ccccc1-c1ccc2[nH]ncc2c1 | -1
Cc1cc(C)cc(C(=O)NCCc2csc(-c3ccc(Cl)cc3)n2)c1 | -57
CN1C(=O)c2cc(NC(=O)c3cccc(F)c3)ccc2OC[C@H]2O[C@H](CC(=O)NCc3ccccc3Cl)CC[C@@H]21 | -39
COc1ccc(-n2c(Cc3ccccc3)nnc2SCC(=O)c2ccccc2)cc1 | -47
Cc1cc(CN2CC[C@@H]3OC[C@H](C(=O)N4CCCO4)C[C@H]3C2)oc1C | -2
O=C(NC12CC3CC(CC(C3)C1)C2)N1CCC2(CC1)Nc1cc(F)ccc1-n1cccc12 | -25
O=C(Cc1ccccn1)N1[C@H](CO)[C@@H]2c3ccccc3NC[C@@H]21 | 3
CCCCc1c(C)nc2ccc(Br)cc2c1SC(N)N | 1
COC1CCN(S(=O)(=O)N2CCC(O)(c3ccc(C)cn3)CC2)CC1 | -4
CCn1cc(-c2cc(C(=O)Nc3c(C)ccc4nc(C)ccc34)no2)cn1 | -3
CCOCCCNC(=O)c1nc(-c2cccc(F)c2)n2c1CCCCC2 | 100
O=C(c1cnc2ccccc2c1)N1CCC2(CC(=O)N(c3ccc(F)cc3)C2)C1 (stereo not drawn) | -31
O=C(Cn1cc(Cl)cn1)N1CCC2(CC1)N=C(c1ccccc1)NC2=O | -10

Another view of some results above:
SMILES: Cc1cc(-c2ccccc2CN2CCOCC2)cnc1-n1cnnc1
  Tg IFNy HTS: -5
SMILES: COC(=O)c1ccc(NC(=O)C(=O)NCCc2sc(-c3cccc(F)c3)nc2C)cc1
  Tg IFNy HTS: -16

Next section.
SMILES | Tg IFNy HTS
CCCC1COCCN1C(=O)CCCS(N)(=O)=O (stereo not drawn) | 3
COc1cc(NCCC(=O)NC2CCCCC2)ncn1 | -2
CN(CCc1ccccn1)c1ncccc1CNC(=O)C1COCCO1 (stereo not drawn) | 7
CCN(Cc1nc(C)no1)C(=O)c1cc(-c2ccccc2Cl)oc1C | -34
N#C[C@@H]1[C@H](c2ccc(-c3cccnc3)cc2)[C@H](CO)N1C(=O)Nc1ccc(F)cc1 | 9
CC1=C(C(=O)N(C)CCCOc2ccccc2C)C(C)NC(=O)N1 (stereo not drawn) | -45
Fc1ccc(NC(=S)Nc2cc(C(F)(F)F)ccc2N2CCCC2)c(F)c1 | 54
COc1ccc(CNc2nc(N3CCC[C@H]3CO)ncc2C(=O)NCc2ncccn2)cc1Cl | -6
Cc1ccc(S(=O)(=O)N2Cc3c(CN(C)C)nn(C)c3C2)cc1F | 0
Cc1oc(-c2ccc(C(C)C)cc2)nc1Cn1c(=O)c2cccnc2n(-c2ccccc2)c1=O | 16
COc1cccc(-c2nccn2-c2ccc(-c3n[nH]c(C)n3)cc2)c1OC | -15
Fc1ccccc1Cn1c(-c2cncs2)nc2ccccc21 | 17
CCc1ccccc1NC(=O)Cn1ncc2c(N3CCCC3)ncnc21 | 21
CNC(=O)c1cccnc1-c1ccc(CO)cc1 | 4
CCOC(=O)C1CCN(C(=O)Nc2c[nH]c3ccc(OC)nc3c2=O)CC1 | 27
Cc1ccc2[nH]cc(CCNC(=O)c3sc4ncccc4c3-n3cccc3)c2c1 | 371
CN(C(=O)c1ccc2ncsc2c1)C1CCCc2ccccc21 (stereo not drawn) | 7
COc1cc(/C=C/C(=O)O)cc(S(=O)(=O)NCCCO)c1OC | 15
Clc1cccc(Cl)c1CSc1nc2ccccc2n2cccc12 | 28
CCc1nc(NC(=O)c2cc3cccc(C)c3nc2C)sc1C | 82

SMILES | Tg IFNy HTS
COCC(=O)N1CCC(c2nc3ccc(N4CCOCC4)cn3n2)CC1 | -1
O=C(CN1CCCCC1c1ccccn1)NCc1ccccc1F (stereo not drawn) | 2
O=C(NCCc1csc(-c2cccc(F)c2)n1)c1c(F)cccc1F | -31
CC(C)NC(=O)c1cc2c(nc1N(C)C)CCN(C(=O)Nc1ccccc1)CC2 | 2
CCOc1cccc(CC(=O)N2CCC3(CC2)Nc2ccccc2-n2cccc23)c1OCC | 21
CCC(=O)OCCC(=O)N1C=Cc2ccccc2C1C#N (stereo not drawn) | 50
Cc1cccc(-n2cc(CN3CCN4CCN(C)CC4C3)cn2)c1 (stereo not drawn) | 4
CCn1c(-c2cc(NC(=O)c3cnccn3)n[nH]2)cc2ccc(OC)cc21 | -103*
COc1ccc(S(=O)(=O)N(C)C[C@H]2Oc3c(cccc3N(C)C)C(=O)N([C@H](C)CO)C[C@@H]2C)cc1 | -16
CCC(=O)N1CC[C@@H]2[C@@H](CO)Nc3ccc(C#Cc4ccccc4F)cc3[C@@H]21 | -27
CCN1C[C@H](COC)[C@@]2(CCN(C(=O)CC3Cc4ccccc4C3)C2)C1 | 3
Cc1nc2ccccc2n1Cc1ccccc1 | -58
CS(=O)(=O)N[C@H]1CN(c2ncccn2)[C@H]2CCCO[C@@H]12 | 4
O=C(Cn1c(=O)cc(C(=O)N2CCCCC2)c2ccccc21)Nc1ccccc1 | -4
CCCNC(=O)N1CC2(CN(C(=O)c3cnccn3)C2)c2c([nH]c3cc(OC)ccc23)[C@H]1CO | 85
CCOc1nc(NC(C)C)nc(NC(C)C)n1 | -47
CC(C)Oc1ccc(CN2CCN(Cc3cccc(F)c3)CC2)cc1CO | -7
CN(C)C(=O)CN1CCOCC2(CCN(CC3CCOC3)CC2)C1 (stereo not drawn) | -44
COc1cc2c(cc1OC)C1(CCCCC1)CN(C)C2 | -3
CCCc1nccn1Cc1nc(-c2ccc(OC)cc2)no1 | -39
COc1ccc(C)cc1-n1cnnc1C(C)OC (stereo not drawn) | -23
CCc1ccc(NC(=O)C(=O)NCCc2csc(-c3ccc(Cl)cc3)n2)cc1 | 69
O=C(c1cccc(N2CCNC2=O)c1)N1CC(Oc2ccccc2F)C1 | 30

Only part of the results is shown (hit frequency here may not be typical).
